Source: PubChem
GLA inh pH 4.5: inhibitors of human alpha-galactosidase A at pH 4.5; AID 1467; activity change, negative = inhibition, % at 105 µM; 230,000 tested, under 10 active; purified enzyme, 4-MU-alpha-Gal fluorescence, pH 4.5; P06280; inconclusive = small, poorly fitted or top-dose-only inhibition, or a rising curve; inactive = flat fitted curve, though single readings scatter; no compound was filed as active;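 also: 0% = full activity with enzyme and -100% = basal without enzyme; dose as in the result columns while the protocol names 77 µM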
miR-21 FLuc: raises the signal of a miR-21 reporter; AID 2288; Potency, µM (titrated, usually from 38.3 µM), for inactives: top-dose reporter change, positive = more light; HeLa miR-21 FLuc reporter, luciferase, 48 h; 340,000 tested, under 10 active; active = well fitted rising curve with a large enough effect; inconclusive = small, poorly fitted or top-dose-only effect; inactive = no such curve, though single readings can be large or run the other way;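 also: % of control where 0% means no effect; miR-21 action dims this reporter so a rising signal means less miR-21 action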
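Compounds were titrated across several concentrations (up to approximately 40 uM) and incubated 48 hours with HeLa miR-21-FLuc reporter cells (miR-21 target sequence downstream of FLuc, endogenous miR-21). Readout was firefly luciferase luminescence after lytic detection reagent.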
Rango complex inh: inhibitors of Rango-importin beta complex formation | Q14974 | Rango CFP/YFP FRET sensor + importin beta, 45 min | Potency, µM (highest dose often 92.2 µM), for inactives: top-dose inhibition of complex formation | 340,000 compounds, 0.031% hits; active = rising FRET ratio curve, often small or poorly fitted; inconclusive = mostly compound fluorescence or quenching in the first reads; inactive = flat curves in all reads;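 also: potency is read from the fitted curve at half-maximal effect; 0% = DMSO wells and 100% = buffer wells lacking importin beta; nearly all actives have a fitted effect of over 15% in size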
Target sequence (Q14974 whole entry, looked up): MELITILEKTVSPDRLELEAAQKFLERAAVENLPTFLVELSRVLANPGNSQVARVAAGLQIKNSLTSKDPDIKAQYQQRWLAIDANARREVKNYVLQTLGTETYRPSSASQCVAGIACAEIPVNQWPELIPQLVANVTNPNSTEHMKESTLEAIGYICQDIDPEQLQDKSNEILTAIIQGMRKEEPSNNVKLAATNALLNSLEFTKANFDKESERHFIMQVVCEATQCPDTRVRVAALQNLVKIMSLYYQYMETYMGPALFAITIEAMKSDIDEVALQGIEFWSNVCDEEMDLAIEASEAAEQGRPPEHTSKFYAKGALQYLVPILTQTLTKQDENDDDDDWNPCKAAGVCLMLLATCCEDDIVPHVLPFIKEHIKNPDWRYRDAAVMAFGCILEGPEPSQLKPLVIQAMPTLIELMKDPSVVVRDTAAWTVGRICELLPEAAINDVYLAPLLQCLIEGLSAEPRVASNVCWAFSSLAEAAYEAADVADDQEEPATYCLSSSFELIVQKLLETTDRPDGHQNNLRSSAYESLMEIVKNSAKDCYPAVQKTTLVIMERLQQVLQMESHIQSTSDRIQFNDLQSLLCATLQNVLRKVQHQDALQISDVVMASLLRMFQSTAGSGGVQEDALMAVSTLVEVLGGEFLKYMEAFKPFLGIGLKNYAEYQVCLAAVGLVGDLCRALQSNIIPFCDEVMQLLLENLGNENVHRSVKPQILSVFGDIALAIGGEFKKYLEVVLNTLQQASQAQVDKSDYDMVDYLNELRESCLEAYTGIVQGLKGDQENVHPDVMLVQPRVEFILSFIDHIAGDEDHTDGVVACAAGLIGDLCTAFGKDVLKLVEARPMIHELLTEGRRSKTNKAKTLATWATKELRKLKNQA
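Inhibition scored from the CFP 486 nm/YFP 530 nm FRET ratio 45 min after adding 0.125 microM importin beta to 50 nM Rango biosensor preincubated 5 min with compound (room temperature, PBS with DTT, Tween-20, BSA). No-importin wells as positive control.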
Rango dissoc inh: inhibition of RanGTP-driven Rango-importin beta dissociation | O95149+P62826 | Biochemical FRET Rango-importin beta, RanGTP-induced dissociation | Potency, µM (titrated, usually from 46.1 µM), for the others: top-dose activity change, negative = inhibition | 340,000 compounds, 0.071% hits | AID 540253; active means falling FRET ratio curve, often poorly fitted, with flat reads before Ran was added; inconclusive means other falling curves, or compound fluorescence or quenching; inactive means flat or rising ratio curve;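 also: potency is read from the fitted curve at half-maximal effect; % of control where 0% means no effect; nearly all actives have a fitted effect of over 45% in size; -100% = wells without RanGTP and RCC1; the record marks most hits as doubtful in a second field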
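FRET read at 45 min, room temperature: inhibitors block the CFP/YFP signal rise when RanGTP (0.6 uM Ran, 2 mM GTP, 0.2 uM RCC1) frees Rango (0.1 uM) from importin beta (0.25 uM). Pre-read after 5 min compound exposure flags interference.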
The depositor's hits bear a star; ? = inconclusive; / = no result given; & = joins results of further samples.

Rango complex inh | Rango dissoc inh | GLA inh pH 4.5 | miR-21 FLuc | SMILES
? | -16% | / | / | O=C(CCc1nc2sc3c(c2c(=O)[nH]1)CCCC3)Nc1ccccc1Cl
-2.2% | 9% | -1 | -1% | Cc1ccccc1C(=O)NC=C1C(=O)OC(C)(C)OC1=O
-0.2% | 6% | 2 | -7% | COc1cccc(-c2nc(CS(=O)CC(=O)NCCCOC(C)C)c(C)o2)c1 (stereo unspecified)
-2.0% | -19% | -6 | 0% | COc1ccc(CCNC(=O)CN2C(=O)NC(CCSC)C2=O)cc1 (stereo unspecified)
0.4% | 0% | / | 8% | COc1ccc(OC)c(S(=O)(=O)N2CCN(CC(O)COc3ccccc3)CC2)c1 (stereo unspecified)
-2.8% | -8% | -1 | 28% | COc1ccc(S(=O)(=O)N2CCC(n3cnc4cc(C(F)(F)F)ccc43)CC2)cc1
-1.0% | 4% | 0 | -8% | Cc1cc(-n2c(C)cc(C(=O)CN3C(=O)NC4(CCCCC4C)C3=O)c2C)no1 (stereo unspecified)
/ | / | 0 | -7% | O=C1CCCC2=C1C1(CCCC1)N=C(Nc1nc3ccccc3o1)N2
-3.7% | -9% | -4 | -2% | COc1ccc(C)cc1C(=O)C1CC(C(=O)O)C(C)(C)C1C (stereo unspecified)
-1.0% | 17% | / | / | CC(C)=CCC/C(C)=C/CNC(=O)C[C@H]1C[C@H](C(=O)N(C(C)C)C(C)C)[C@@]2(C)c3[nH]c4cc(CCC(=O)N(C)C)ccc4c3CCN2C1=O
-0.6% | 7% | 0 | -2% | COc1ccccc1N1CCN(CCc2n[nH]c(=S)n2-c2ccccc2)CC1
9.1% | 16% | -13 | -26% | CC(C)Oc1ccc(-c2nc(NCC3CCCO3)c3ccccc3n2)cc1 (stereo unspecified)
-3.0% | 0% | -1 | -16% | CC(C)COC(=O)Nc1ccc(C(=O)O)cc1
? | ? | -9 | -13% | Cc1sc2ncnc(N/N=C/c3ccccc3O)c2c1C
5.2% | 8% | 1 | -4% | Nc1ccc(S(=O)(=O)NC2(C(F)(F)F)NC(=O)N(c3ccccc3Cl)C2=O)cc1 (stereo unspecified)
4.7% | 18% | -7 | -1% | O=C(c1cccc(S(=O)(=O)N2CCCC2)c1)N1CCCc2ccccc21
-0.5% | -4% | 6 | -4% | CSc1nnnn1CCn1nnnc1SC
1.4% | 6% | / | 8% | C[C@H](NC(=O)N1CCn2c1nc1ccccc12)C(=O)NCc1ccccc1
-2.3% | -9% | -17 | -14% | CCOc1ccc(NCCC(=O)c2ccc3c(c2)OCO3)cc1
-1.5% | -14% | -2 | 1% | O=C(Nc1cccc(Cl)c1)C1CCCN(S(=O)(=O)c2cnc[nH]2)C1 (stereo unspecified)
-2.6% | -7% | / | 0% | O=C(COc1ccccc1)Nc1nnc(COc2ccccc2)s1
-4.7% | 4% | / | 6% | O=C(c1ccco1)N1CCN(C(=S)Nc2cc(F)cc(F)c2)CC1
0.3% | 2% | / | / | CC(C(=O)N1CCc2ccccc21)N1CCN(S(=O)(=O)c2ccc3c(c2)OCCCO3)CC1 (stereo unspecified)
-0.3% | -14% | / | / | CC[C@@H]1C=C(C(=O)O)[C@H](c2ccc(C)cc2)N1S(=O)(=O)c1ccc(C)cc1
/ | / | 2 | -3% | COC(=O)C(C)Sc1nnc(Cc2cc(=O)[nH]c(=O)[nH]2)n1-c1ccc(Cl)cc1 (stereo unspecified)
-2.4% | 10% | 7 | 5% | Cc1cc(C)c(S(C)(=O)=O)c(S(=O)c2ccc(Cl)cc2)n1 (stereo unspecified)
? | -2% | -1 | -53% | COc1ccc(Nc2oc(-c3cccs3)nc2C#N)cc1
1.8% | -14% | / | 0%&-3% | CCOC(=O)N1CCN(CCC(=O)Nc2cc(C)ccc2C)CC1
-1.8% | 8% | / | 4% | CCOC(=O)C1CCN(C(=O)Cn2c(=O)oc3cc(S(=O)(=O)N4CCCC4)ccc32)CC1
-5.2% | 0% | / | -5%&-4% | COc1ccc(NC(=O)Cn2c(=O)n(CCC(=O)NCC3CCCO3)c(=O)c3cc(OC)c(OC)cc32)cc1 (stereo unspecified)
-0.7% | 5% | -28 | 1% | O=C(NC(Cc1ccccc1)C(=O)O)c1ccco1 (stereo unspecified)
-0.1% | -9% | 1 | -2% | Cc1sc(N/N=C/c2cc([N+](=O)[O-])ccc2O)nc1-c1ccccc1
0.0% | 28% | / | -8% | Cc1cccc(NC(=S)N2CCCC2)c1
-1.4% | 0% | 3 | 1% | Nc1nc(SCC(=O)NC2CCCCC2)[nH]c(=O)c1-c1ccccc1
-0.8% | -6% | 4 | -10% | N/C(=N\c1nc2c(c(=O)[nH]1)CCC2)Nc1ccccc1C(F)(F)F
3.3% | 0% | 0 | 2% | CCC1CCCCN1c1nc(-c2cccc(OC)c2O)nc2ccccc12 (stereo unspecified)
-3.4% | 9% | -2 | -10% | CCOc1ccc(CCNC(=O)C2CCCN(c3nn4c(=O)cc(C)nc4s3)C2)cc1OCC (stereo unspecified)
1.2% | -9% | / | -1% | Cc1cc(N2CCN(S(=O)(=O)c3ccccc3)CC2)nc2c(C)cccc12
-2.7% | 5% | -6 | -11% | CCOC(=O)CN(C(=O)COc1nc(-c2ccccc2)cc(C)c1C#N)c1ccccc1
-1.8% | 13% | 4 | -6% | Cc1ccc(-c2nnn(CC(=O)N(c3cccc(F)c3)C(C(=O)NC3CCCC3)c3ccco3)n2)o1 (stereo unspecified)
5.4% | 3% | / | -2% | Cc1cc(C)cc(C(=O)NC(CC(N)=O)c2ccc(NCC3CC3)c([N+](=O)[O-])c2)c1 (stereo unspecified)
-1.2% | 0% | 1 | -7% | O=C(Cc1ccc([N+](=O)[O-])cc1)NCc1ccccn1
0.4% | -8% | / | 12% | COC(=O)Cn1c(=O)c2c(nc3n2CCCN3Cc2ccccc2)n(C)c1=O
-5.4% | -8% | -7 | -6% | CN1CCC(=NNC(=O)c2ccc(N(Cc3ccccc3Cl)S(C)(=O)=O)cc2)CC1
-0.9% | -1% | / | -5% | CCC(C(=O)NCCCN1CCN(C)CC1)n1nc(C)c2sc3ccccc3c2c1=O (stereo unspecified)
5.2% | -2% | / | / | Cc1cc(NC(=O)CSCC(=O)N(C)Cc2ccc(Cl)cc2Cl)no1
? | ? | -2 | -20% | COc1ccc2cc(C(c3nnnn3Cc3ccc(F)cc3)N3CCCCCC3)c(=O)[nH]c2c1 (stereo unspecified)
-3.2% | 1% | -11 | -5% | O=C(N/N=C/c1ccccc1)c1cc(=O)[nH]c2ccccc12
0.2% | -11% | / | -6% | COc1ccc(C2CC(c3ccccc3O)=NN2C(=O)c2ccccc2)cc1OC (stereo unspecified)
0.1% | 11% | / | 6% | Cc1cccc[n+]1CC(=O)Nc1ccc([N+](=O)[O-])cc1

(next part)
Rango complex inh | Rango dissoc inh | GLA inh pH 4.5 | miR-21 FLuc | SMILES
-0.2% | 2% | -14 | -4% | Cc1cc(OCC(=O)Nc2ccc(S(=O)(=O)N3CCN(C)CC3)cc2)cc(C)c1Cl
5.7% | 3% | / | / | CCN1C(=O)[C@H]2[C@H]3CN=C(SCC4CC4)N3[C@@](CC)(C(=O)OC)[C@H]2C1=O
4.6% | -8% | -11 | -17% | C/C(=N\NC(=O)Cc1ccccc1)c1cccs1
-0.2% | 3% | 3 | -4% | O=C(/C=C/c1ccccc1)N/C(=C/c1ccccc1)C(=O)NCCCO
3.4% | 4% | 1 | 1% | Cc1cccc(C)c1NC(=S)N(CCCN1CCN(C)CC1)Cc1cccs1
1.0% | 22% | -16 | 13% | C1CCN(CCCNC2C3CC4CC(C3)CC2C4)C1 (stereo unspecified)
2.8% | -5% | / | -4% | CCOCCCNC(=O)CCc1nnc2ccc(N3CCCCC3)nn12
-1.1% | -17% | / | -4% | O=C(COc1ccc(Cl)cc1)Nc1ccc(C(=O)O)cc1NC(=O)COc1ccc(Cl)cc1
-0.7% | 11% | / | 1% | CCOc1ccc(N(C)Cc2cc(=O)oc3ccc(OC)cc23)cc1
1.9% | 0% | -1 | 0% | CN1CCN(C(=O)C23CCC(C)(C(=O)C2Br)C3(C)C)CC1 (stereo unspecified)
-4.6% | 26% | 2 | 1% | Cc1ccccc1-n1nnnc1-c1ccccc1
0.0% | 1% | 5 | 0% | CCc1nc(SCC(=O)Nc2cc(C)on2)c2c(C)c(C)sc2n1
-1.5% | 4% | / | 1% | CCCCOP(=O)(c1ccc(N(C)C)cc1)C(O)c1ccc(C(C)C)cc1 (stereo unspecified)
-5.5% | -6% | 0 | -3% | Cc1ccc2c(c1)N(CC(=O)c1cccc(Cl)c1)C(=O)C(C)O2 (stereo unspecified)
? | 5% | 1 | -10% | C=CCSc1nnc(CCCCCN2C(=O)c3cccc4cccc(c34)C2=O)o1
2.4% | 0% | -6 | 25% | COc1ccc(-c2c(-c3ccc(O)cc3O)n[nH]c2C)cc1OC
? | 14% | -7 | 24% | CCN(CC)S(=O)(=O)c1cccc(NC(=O)CCSc2ccc(Cl)cc2)c1
0.4% | 0% | / | / | O=C1N[C@@H](c2ccccc2)COC(=O)[C@@H](Cc2ccc(F)cc2)CC/C=C/C[C@H]1CC(=O)N(CCO)Cc1ccccc1
-3.7% | -10% | 2 | -41% | CCOc1ccc(N/C=C/C(=O)c2ccc(OC)cc2)c([N+](=O)[O-])c1
6.3% | 10% | / | 4% | COc1cccc(CNC(=O)C2CCN(S(=O)(=O)c3cccc4nonc34)CC2)c1
-2.5% | 0% | 0 | -6% | CCCNc1[nH]c(=O)n(C)c(=O)c1N=O
3.8% | 10% | / | / | O=C(CCc1ccccc1)N1CCN(C(=O)CCc2ccccc2)CC1
-3.6% | -4% | / | / | CC1CC(C)CN(CC(O)COC2CC(C)CC(C)(C)C2)C1 (stereo unspecified)
1.8% | 11% | / | 1% | COc1ccc(-n2nc3c(c2NC(=O)CC(C)C)CS(=O)C3)cc1 (stereo unspecified)
-0.1% | -2% | ? | 1% | O=C(c1ccco1)N1CCN(Cc2nnnn2CC2CCCO2)CC1 (stereo unspecified)
-1.5% | -16% | -2 | -22% | CCc1c(C)sc(NC(=O)c2cc(-c3ccco3)on2)c1C#N
-1.2% | 0% | -1 | 2% | CC(OC(=O)c1ccc2ccccc2n1)C(=O)c1ccccc1 (stereo unspecified)

By substructure, those above containing a Cl atom (eleven)
Rango complex inh | Rango dissoc inh | GLA inh pH 4.5 | miR-21 FLuc | SMILES
? | -16% | / | / | O=C(CCc1nc2sc3c(c2c(=O)[nH]1)CCCC3)Nc1ccccc1Cl
5.2% | 8% | 1 | -4% | Nc1ccc(S(=O)(=O)NC2(C(F)(F)F)NC(=O)N(c3ccccc3Cl)C2=O)cc1 (stereo unspecified)
-1.5% | -14% | -2 | 1% | O=C(Nc1cccc(Cl)c1)C1CCCN(S(=O)(=O)c2cnc[nH]2)C1 (stereo unspecified)
/ | / | 2 | -3% | COC(=O)C(C)Sc1nnc(Cc2cc(=O)[nH]c(=O)[nH]2)n1-c1ccc(Cl)cc1 (stereo unspecified)
-2.4% | 10% | 7 | 5% | Cc1cc(C)c(S(C)(=O)=O)c(S(=O)c2ccc(Cl)cc2)n1 (stereo unspecified)
-5.4% | -8% | -7 | -6% | CN1CCC(=NNC(=O)c2ccc(N(Cc3ccccc3Cl)S(C)(=O)=O)cc2)CC1
5.2% | -2% | / | / | Cc1cc(NC(=O)CSCC(=O)N(C)Cc2ccc(Cl)cc2Cl)no1
-0.2% | 2% | -14 | -4% | Cc1cc(OCC(=O)Nc2ccc(S(=O)(=O)N3CCN(C)CC3)cc2)cc(C)c1Cl
-1.1% | -17% | / | -4% | O=C(COc1ccc(Cl)cc1)Nc1ccc(C(=O)O)cc1NC(=O)COc1ccc(Cl)cc1
-5.5% | -6% | 0 | -3% | Cc1ccc2c(c1)N(CC(=O)c1cccc(Cl)c1)C(=O)C(C)O2 (stereo unspecified)
? | 14% | -7 | 24% | CCN(CC)S(=O)(=O)c1cccc(NC(=O)CCSc2ccc(Cl)cc2)c1

Full records, looked up by structure:
CCN(CC)S(=O)(=O)c1cccc(NC(=O)CCSc2ccc(Cl)cc2)c1 is listed with Rango complex inh: ?; Rango dissoc inh: 14%; GLA inh pH 4.5: -7; miR-21 FLuc: 24%
COc1ccc(-c2c(-c3ccc(O)cc3O)n[nH]c2C)cc1OC is listed with Rango complex inh: 2.4%; Rango dissoc inh: 0%; GLA inh pH 4.5: -6; miR-21 FLuc: 25%

A portion of the library, so the mix of outcomes need not match the whole.
